Mtb growth = Mycobacterium tuberculosis H37Rv growth inhibition, cell based, confirmatory dose response (AID 1949). most inactive calls were filed without a number and no value below 0 was filed. inhibition, % at 10 µg/mL, or IC50 in µg/mL where a hit was titrated. 1.6% of 100,000 active;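 active means confirmed in a dose series; inconclusive means about 50% or more but not retested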;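 further: bacteria grown 7 days with compound before Alamar blue readout; 0% = untreated bacteria and 100% = reference antibiotic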
* hit, by the source's call; i = inactive; ? = inconclusive. These rows are one share of the data; rates above refer to the full screens.

SMILES	Mtb growth
CCCCc1ccc(NC(=O)CN(Cc2ccccc2)S(C)(=O)=O)cc1	9%
CCCCc1nc2ccccc2c(=O)n1N	7%
O=C(COc1ccc(NS(=O)(=O)c2ccc3oc4ccccc4c3c2)cc1)N1CCOCC1	3%
Cc1cc(C)c(C#N)c(N2CCOCC2)n1	i
COc1ccccc1NC(=O)Cn1c(C(F)(F)F)nc2ccccc21	0%
COCCCN1C(=O)c2cccc3c([N+](=O)[O-])ccc(c23)C1=O	15µg/mL*
CC1Cc2ccccc2N1C(=O)c1cccc(COc2ccc(Cl)cc2)c1 (stereo not given)	i
COC(=O)c1c(NC(=O)c2ccc(C)c(C)c2)sc2c1CCC(C)C2 (stereo not given)	4%
O=C(CN1C(=O)c2ccccc2S1(=O)=O)Nc1cccc(Br)c1	i
COc1cccc(OC)c1C(=O)NCCOc1cc(C)cc(C)c1	i
Cc1ccc(NC(=O)C2CC(=O)N(c3cccc(Cl)c3)C2)cc1C (stereo not given)	i
CC1CCN(c2cc(N3CCNCC3)c([N+](=O)[O-])cc2F)CC1	?
COC(=O)c1sccc1NC(=O)c1sc2cc(C)ccc2c1Cl	i
C=CCc1cc(Cl)ccc1OCCNCCN	i
COC(=O)C(Cc1ccc(O)cc1)NC(=O)NC12CC3CC(CC(C3)C1)C2 (stereo not given)	i
COc1ccc(NC(=O)c2ccccc2-c2ccccc2C(=O)O)cc1	1%
COc1ccc(CCNc2nc3c(c(=O)n(C)c(=O)n3C)n2Cc2cccc(F)c2)cc1OC	i
COCCNC(=O)C1CCN(S(=O)(=O)c2ccc(F)cc2)CC1	i
COc1ccc2nc(NC(=O)c3cc(C)cc(C)c3)sc2c1	1%
CCc1cc2c(=O)n(CC(=O)NCc3ccccc3)cnc2s1	i
CN1C(=O)c2ccc(NC(=O)C(c3ccccc3)c3ccccc3)cc2C1=O	i
CS(=O)(=O)N(CC(=O)Nc1cccc([N+](=O)[O-])c1)c1ccccc1F	i
O=c1c2c(nc3nc(SCc4ccccc4)[nH]n13)CCC2	i
CC(C)(C)NCCCOc1ccccc1Br	i
CCOc1ccc(N=C2NC(=O)C(CC(=O)Nc3ccc(OC)cc3)S2)cc1 (stereo not given)	i
COC(=O)C1=C(C)Nc2nnnn2C1c1ccsc1 (stereo not given)	5%
COc1ccc(S(=O)(=O)Nc2cc(S(N)(=O)=O)ccc2C)cc1	i
COC(=O)c1c(NC(=S)Nc2c(C)nn(Cc3ccc(Cl)c(Cl)c3)c2C)sc(C)c1C	i
CCOC(=O)N1CCN(Cc2nc(-c3ccc(C)cc3)no2)CC1	i
O=C(CN1CCOCC1)NN1C(=O)c2cccc3cccc(c23)C1=O	i
COc1cc(-n2nnnc2SCC(=O)NCc2ccccc2)c(OC)cc1Cl	4%
COc1ccc(NC(=O)CCn2nc(-c3ccc(C)cc3)c3ccccc3c2=O)cc1	i
Cc1ccc(CNC(=O)c2ccncc2)cc1	i
Cc1cccc(-n2c(Cc3ccccc3)nnc2SCC(=O)N2C(C)CCCC2C)c1 (stereo not given)	i
Cc1cc(C)cc(C(=O)Nc2cccc(NC(=O)c3ccco3)c2)c1	5%
Cn1ccc(NC(=S)NC2CCCC2)n1	i
CCOC(=O)c1cc(CC)sc1NC(=O)c1ccc(F)cc1	i
CSc1nc(-c2ccccc2)nc2sc3c(c12)CCCC3	5%
CSc1cccc(NS(=O)(=O)c2cccc([N+](=O)[O-])c2)c1	13%
COc1ccc(OC)c(C(=O)CCC(=O)Nc2cccc(C(F)(F)F)c2)c1	5%
Cc1cc(=O)oc2c(C)c(OCC(N)=O)ccc12	i
COc1ccc(S(=O)(=O)Nc2ccc(NC(C)=O)cc2)cc1OC	i
CCc1ccccc1NC(=O)c1cccc(NC(=O)C(C)C)c1	i
COc1ccc(C2=CC(c3ccc(OC)cc3)NC(=S)N2)cc1 (stereo not given)	i
COc1ccc(Cl)cc1NC(=S)N1CCc2ccccc2C1	i
N#Cc1c(N2CCN(C(=O)c3ccco3)CC2)nc(-c2ccccc2)c2c1CCCC2	i
COc1ccc(OC)c(-n2c(-c3cccc(C)c3)n[nH]c2=S)c1	i
Fc1ccc(-c2ccc(-c3nn4c(-c5ccccc5)nnc4s3)o2)cc1	i
O=Cc1ccc(-c2ccc(Cl)cc2)o1	?
COc1ccc(NC(=O)CCSc2ccc(C)cc2)cc1Cl	6%
CCOc1ccccc1C(=O)Nc1cccc2ccccc12	?
COc1ccc(OCCn2c(NC(=O)c3cccs3)nc3ccccc32)cc1	i
O=C(CSc1ccc(Cl)cc1)Nc1ccc(N2CCN(C(=O)c3cccs3)CC2)c(Cl)c1	i
CCOc1cc(C(=O)Nc2sc3c(c2C(N)=O)CCCC3)cc(OCC)c1OCC	i
O=C(CN1CCN(S(=O)(=O)N2CCCCC2)CC1)Nc1cc(Cl)ccc1Cl	i
COc1ccc(NC(=O)C2CC(=O)N(c3ccc(Cl)cc3)C2)cc1 (stereo not given)	i
O=C(CSCc1c(Cl)cccc1Cl)Nc1cccnc1	i
COc1cc(CO)cc(Cl)c1OCc1cccc(C(=O)O)c1	i
Cc1cc(C)cc(C(=O)N2CCN(c3c(F)c(F)c(F)c(F)c3F)CC2)c1	i
Cc1ccc(-c2csc(NC(=O)CCCOc3ccccc3C)n2)cc1	i

Three structures from above, sorted by count of non-hydrogen atoms, highest first.
SMILES	Mtb growth
CC1Cc2ccccc2N1C(=O)c1cccc(COc2ccc(Cl)cc2)c1 (stereo not given)	i
O=C(CN1CCOCC1)NN1C(=O)c2cccc3cccc(c23)C1=O	i
CC(C)(C)NCCCOc1ccccc1Br	i

Some of these compounds in order of SMILES length, smallest number first:
SMILES	Mtb growth
O=Cc1ccc(-c2ccc(Cl)cc2)o1	?
O=C(CSCc1c(Cl)cccc1Cl)Nc1cccnc1	i
Cc1cc(=O)oc2c(C)c(OCC(N)=O)ccc12	i
COc1ccc(NC(=O)CCSc2ccc(C)cc2)cc1Cl	6%
COc1cc(CO)cc(Cl)c1OCc1cccc(C(=O)O)c1	i
CCc1ccccc1NC(=O)c1cccc(NC(=O)C(C)C)c1	i
COc1ccc(C2=CC(c3ccc(OC)cc3)NC(=S)N2)cc1 (stereo not given)	i
Cc1ccc(-c2csc(NC(=O)CCCOc3ccccc3C)n2)cc1	i
COc1ccc(S(=O)(=O)Nc2ccc(NC(C)=O)cc2)cc1OC	i
COc1ccc(NC(=O)C2CC(=O)N(c3ccc(Cl)cc3)C2)cc1 (stereo not given)	i
CSc1cccc(NS(=O)(=O)c2cccc([N+](=O)[O-])c2)c1	13%
Fc1ccc(-c2ccc(-c3nn4c(-c5ccccc5)nnc4s3)o2)cc1	i
COc1ccc(OC)c(C(=O)CCC(=O)Nc2cccc(C(F)(F)F)c2)c1	5%
O=C(CN1CCN(S(=O)(=O)N2CCCCC2)CC1)Nc1cc(Cl)ccc1Cl	i
Cc1cc(C)cc(C(=O)N2CCN(c3c(F)c(F)c(F)c(F)c3F)CC2)c1	i
N#Cc1c(N2CCN(C(=O)c3ccco3)CC2)nc(-c2ccccc2)c2c1CCCC2	i
O=C(CSc1ccc(Cl)cc1)Nc1ccc(N2CCN(C(=O)c3cccs3)CC2)c(Cl)c1	i

The results go on:
SMILES	Mtb growth
O=C(CC(c1ccccc1)c1ccccc1)Nc1nnc(Cc2ccc(Cl)cc2)s1	i
CCOC(=O)c1ccc(NC(=O)CNC(=O)c2ccc(Cl)cc2)cc1	i
COc1ccc(C(=O)NCC2OCCc3ccccc32)c(O)c1 (stereo not given)	0%
O=C1CC(N2CCC(N3CCCCC3)CC2)C(=O)N1c1ccccc1 (stereo not given)	i
COc1cc(C)c(S(=O)(=O)N2CCOCC2)cc1C	i
Cc1nc(S(=O)(=O)c2ccc(Cl)cc2)c(N(C)C)o1	3%
O=C(O)CCC(=O)NC1CCCCCCC1	i
CCOc1ccccc1NC(=O)CN(c1ccc(Cl)cc1Cl)S(=O)(=O)c1ccccc1	2%
O=C(Cc1cccc2ccccc12)NC(=S)Nc1ccc(N2CCOCC2)cc1	i
COc1cccc(OC)c1OCCCOc1ccc(Br)cc1	1%
O=C(NNC(=O)c1ccncc1)Nc1cccc(Cl)c1	i
CSc1ccccc1C(=O)N1CCC(C(N)=O)CC1	i
Cc1cc(NS(=O)(=O)c2ccc(NC(=O)C(C)N3C(=O)c4ccccc4C3=O)cc2)nc(C)n1 (stereo not given)	i
Cc1ccccc1C(=O)Nc1sc2c(c1C(=O)N1CCC(C)CC1)CCC2	7%
CC1CC(C)CN(CC(=O)Nc2ccc(S(N)(=O)=O)cc2)C1 (stereo not given)	i
Cc1ccc(-c2nn(CCC#N)cc2C=O)cc1	i
O=C(CSc1nnc(COc2ccccc2)n1-c1ccccc1)N1CCN(c2ccccc2)CC1	i
Cc1[nH]n(-c2ccccc2)c(=S)c1C=Nc1ccccc1O	2.4µg/mL*
O=C(NCCCn1ccnc1)NC(C(F)(F)F)C(F)(F)F	1%
Cc1ccc(N2CC(C(N)=O)CC2=O)cc1C (stereo not given)	i
C#CCOc1nc2c(c(=O)n(Cc3ccc(Cl)cc3)c(=O)n2C)n1C	0%
Fc1ccc(N2CCN(C(=S)NCc3ccco3)CC2)cc1	i
Cc1cc(OCC(=O)N2CCOCC2)cc(C)c1Br	i
Cc1ccc(CN(C(=O)c2cccs2)C2CCS(=O)(=O)C2)cc1 (stereo not given)	0%
CCc1cccc(CC)c1NC(=O)Nc1ccc(Cl)cc1	i
COC(=O)C1=CN(Cc2ccc(Cl)cc2)C=C(C(=O)OC)C1c1cc(OC)c(OC)cc1OC	i
CN(c1ccccc1)S(=O)(=O)c1ccc(-c2ccccc2)cc1	5%
CC(=O)Nc1ccc(S(=O)(=O)NCCOc2ccc(Cl)cc2C)cc1	i
Clc1ccc(Nc2nc(-c3ccncc3)cs2)nc1	i
CCOC(=O)c1ccc(NS(=O)(=O)c2ccc([N+](=O)[O-])cc2)cc1	i
COc1ccccc1Nc1nc(C2(C)CC3(CC(C)OC3=O)C(=O)O2)cs1 (stereo not given)	i
Cc1cc(=O)[nH]c(SC(C)C(=O)Nc2ccc(Cl)cc2)n1 (stereo not given)	i
COc1ccc(C(=O)NC(=S)Nc2ccc(-c3nc4cc(C(C)C)ccc4o3)cc2)cc1	i
CC(=O)Nc1cccc(NC(=O)Nc2ccc(Cl)cc2Cl)c1	i
COC(=O)C1=CN(Cc2ccc(OC)cc2)C=C(C(=O)OC)C1c1cc(OC)c(OC)c(OC)c1	i
CC1(C)CC(NC(=O)CN2CCCCC2)CC(C)(C)N1	1%
Clc1ccc(C2=NCCN2)cc1	i
O=C(CN(c1ccccc1)S(=O)(=O)c1ccccc1)NCCNC(=O)N(c1ccccc1)S(=O)(=O)c1ccccc1	i
O=C(Cc1cccs1)Nc1nnc(C(F)(F)F)s1	3%
CN1CCN(c2ccc(NC(=O)Cc3ccccc3)cc2)CC1	i
CCOC(=O)c1c(NC(=O)CN2CCCC2)sc2c1CCC(C)C2 (stereo not given)	9%
CCc1ccc(NC(=O)C2CCN(C(=O)c3ccc(Br)cc3)CC2)cc1	0%
CC(C)Cn1c(SCC(=O)Nc2ccc(Cl)c(C(F)(F)F)c2)nnc1-c1ccncc1	i
CCc1cccc(C)c1NC(=O)CN(Cc1ccccc1C)S(=O)(=O)c1ccc(Cl)cc1	i
CCCn1c(SCc2ccc([N+](=O)[O-])cc2)nnc1-c1ccncc1	i
CCOC(=O)N1CCN(C(=S)Nc2cccc(OC)c2)CC1	i
Cc1c(C(=O)Nc2ccccc2C(=O)NC2CCCCC2)cccc1[N+](=O)[O-]	i
CCn1ncc(Cl)c1C(=O)Nc1ccncc1	i
O=S(=O)(Nc1ccc(Cl)cc1)c1ccccc1	3%
CC(NC(=O)COc1cccc(Cl)c1)c1ccccc1 (stereo not given)	i
Cc1cccc(NC(=O)C(=O)NC2CCCCC2C)c1 (stereo not given)	i
COc1cccc(-n2sc3c(c2=S)-c2cccc4c2N(C(=O)C4=O)C3(C)C)c1	2%
O=C(CSc1ccccc1)Nc1cccc(C(=O)NN2C(=O)c3ccccc3C2=O)c1	i
CCNS(=O)(=O)c1ccc(NC(=S)Nc2cc(Cl)ccc2OC)cc1	i
O=C(COc1ccc(Cl)cc1Cl)Nc1ccccc1Cl	16%
COC(=O)c1[nH]c(C)c(/C(O)=C2\C(=O)C(=O)N(CCN(C)C)C2c2ccc(Cl)c(Cl)c2)c1C (stereo not given)	i
COc1ccc(S(=O)(=O)N(C)CC(=O)Nc2ccc(C(N)=O)cc2)cc1	i
Nc1ccc(-c2nnc(SCC(=O)NC3CCCCC3)n2Cc2ccccc2)cc1	i
O=C(NC(=S)Nc1nc(-c2ccc(Br)cc2)cs1)c1ccco1	1%
O=C(NC(=S)Nc1ccccc1C(=O)NC1CCCCC1)c1ccco1	i
(list continues)
SMILES	Mtb growth
Cc1ccc(C)c(NC(=O)c2ccccc2N(Cc2ccccc2)S(C)(=O)=O)c1	i
COc1ccc(N2CCN(S(=O)(=O)c3cccc(Cl)c3)CC2)cc1	3%
CCOC(=O)c1ccc(NC(=O)Nc2ccccc2OC)cc1	i
Cc1cc(C)c(NC(=O)CCc2ccccc2)c(Cl)c1	?
CCOc1ccc(C(O)(c2ccncc2)c2ccc(OCC)cc2)cc1	i
CCOc1ccc(NC(=O)NNC(=O)c2ccc(CC)s2)cc1	i
COc1cccc(N2CCN(C3CC(=O)N(c4ccc(F)c(Cl)c4)C3=O)CC2)c1 (stereo not given)	i
O=C(Nc1cc(F)cc(F)c1)c1cccs1	32%
CCOc1ccc(OCC(=O)Oc2ccc(OCC)cc2)cc1	i
CN1CCN(c2ccc(NC(=O)COc3ccc4ccccc4c3)cc2)CC1	6%
COc1ccccc1C(=O)Nc1nnc(CSCc2cccc(Br)c2)s1	0%
O=C(Nc1sc2c(c1C(=O)NC1CCS(=O)(=O)C1)CCCC2)c1ccc(Br)cc1 (stereo not given)	i
O=C(NCCN1CCOCC1)C(=O)NCc1ccco1	i
CC1CN(CCOc2ccccc2C(C)C)CC(C)O1 (stereo not given)	i
COc1ccc(CC(=O)N2CCC(C(N)=O)CC2)cc1	i
Cc1cc(C)c(OCCCNCc2ccccc2)c(Br)c1	?
CCOC(=O)C1C(=O)CC(C)(O)C(C(=O)OCC)C1c1ccc(SC)cc1 (stereo not given)	i
O=C(CC(O)(C(F)(F)F)C(F)(F)F)Nc1cccc(C(F)(F)F)c1	3.6µg/mL*
CCOC(=O)COc1ccc(C2C(C(=O)OC)=C(C)NC3=C2C(=O)CC(C)(C)C3)cc1OCC (stereo not given)	i

Source: PubChem (Southern Research Institute)
